NPYLR7 agonist: activates Aedes aegypti NPYLR7 receptor; AID 1259423; activation, % at 10 µM; 270,000 tested, 0.15% active; HEK293T NPYLR7/Galpha15, GCaMP6s calcium fluorescence; in the data active = activation above about 40%;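 note: 0% = vehicle and 100% = reference agonist at the receptor; some compounds past the cut are filed as inactive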
NPYLR7 agonist max-min: further read-out of NPYLR7 agonist, marked with its call; activation, %; measured here: Max-Min RFU normalised activation; some inactives read as strong as hits;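 span of the calcium signal over five minutes; 0% = vehicle and 100% = native peptide agonist; compound fluorescence can raise it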
* = called active by the depositor; & = joins results of further samples.

Values run as follows: NPYLR7 agonist | NPYLR7 agonist max-min
> COc1ccc2cc(-c3[nH]ncc3CNCc3ccc(C(F)(F)F)cc3)ccc2c1
 : 5 | 2
> CCc1noc(CN(CC)C(=O)[C@H]2Cc3ccccc3CN2)n1
 : 4 | 2
> N#Cc1cccc(CN2C(=O)C3(SCCN3C(=O)c3cccs3)c3cc(Cl)ccc32)c1 (centres undefined)
 : 13 | 12
> CCCCc1ccc(CNC(=O)c2cc(-c3ccc(OCC)cc3)nc3ccccc23)cc1
 : -3 | 3
> C=C1CC(=O)C2=C(C)C[C@H](O)[C@@H]3[C@H](OC(=O)[C@@H]3C)[C@@H]12
 : -3 | -4
> N#CC1(C(=O)NCC2(O)CCC3(CC2)OCCO3)CCC1
 : -5 | -6
> CS(=O)(=O)Oc1ccc(/C=C2\C(=N)N3N=C(C45CC6CC(CC(C6)C4)C5)SC3=NC2=O)cc1
 : -3 | -2
> CCCCNC(=O)C1(C)CCN1C(=O)c1oc2ccccc2c1C (centres undefined)
 : -1 | -4
> N#CC1C(=N)Oc2n[nH]c(-c3ccncc3)c2C1c1cc2c(cc1Br)OCO2 (centres undefined)
 : 3 | 1
> CCc1[nH]c2c(CNC(=O)c3ccnc(-n4cnnc4)c3)cc(C)cc2c1C
 : 5 | 4
> Cc1cccc(OCC(=O)Nc2cc(C)nn2-c2ncnc3c2cnn3-c2ccc(C)cc2C)c1
 : 2 | 1
> COc1cccc(Cn2c(=O)c(C(=O)N3CCN(C(C)=O)CC3)nn(-c3ccc(Cl)cc3)c2=O)c1
 : 4 | 3
> Cc1cc(C)cc(OCCS(=O)CC(=O)NC2CCCCCC2)c1 (centres undefined)
 : 6 | 6
> Cc1cccc2c(N=NC(=O)c3cccc(O)c3)c(O)[nH]c12
 : -5 | -11
> Cn1cccc1CN(Cc1ccccc1)CC(O)COc1ccccc1 (centres undefined)
 : 46 | 36
> Cc1cn2c3c(=O)n(CCN4CCCCC4)c(=O)n(C)c3nc2n1-c1ccccc1Cl
 : -2 | 27
> O=C(CNC(=O)c1ccccc1Br)N=Nc1c(O)n(Cc2ccc3c(c2)OCO3)c2ccccc12
 : -1 | -5
> COc1cccc(CSc2nnc(C(C)NC(=O)Nc3ccc(F)c(F)c3)n2-c2ccc(C)cc2)c1 (centres undefined)
 : 1 | 4
> O=C(Cc1ccccc1)N1CCOC(COCc2cccc(C(F)(F)F)c2)C1 (centres undefined)
 : 8 | -1
> COCCNC(=O)CCCN(C)S(=O)(=O)c1ccc2c(c1)C(=O)c1ccccc1C2=O
 : 0 | 5
> Cc1ccc(S(=O)(=O)N2CC(C(N)=O)CCC2C)cc1C(F)(F)F (centres undefined)
 : -7 | -9
> CC1CCCN1Cc1cccc(C(=O)Nc2nn(C)c3ccccc23)c1 (centres undefined)
 : 6 | 4
> CCNC(=O)N1CCN(CCN2C(=O)CSC2c2ccc(C(F)(F)F)cc2)CC1 (centres undefined)
 : 0 | 10
> COc1ccccc1Oc1cc(N2CCN(Cc3ccccc3)CC2)ncn1
 : 21 | 30
> COc1ccc(-c2cc(C(=O)N3CCN(c4ccccc4OC)CC3)c(C)n2-c2ccccc2)cc1
 : 0 | 5
> O=C1NC(=Nc2ccccc2Cl)S/C1=C/c1ccc(Cl)cc1
 : -5 | -7
> CC(C)CNC(=O)C(NC(=O)c1ccccc1Cl)C1CCN(C(=O)c2ccc(F)cc2)CC1 (centres undefined)
 : 4 | 7
> C#CC1(OCC(O)CN2CCOCC2)CCCCC1 (centres undefined)
 : -1 | 24
> COc1c(C)cc(S(=O)(=O)NCc2ccc3c(c2)OCO3)cc1C
 : -1 | -8
> CC(Cc1cccnc1)Nc1nccc(-c2cnn(-c3ccccc3F)c2)n1 (centres undefined)
 : 4 | 3

Molecules above that have a halogen (13):
Values run as follows: NPYLR7 agonist | NPYLR7 agonist max-min
> COc1ccc2cc(-c3[nH]ncc3CNCc3ccc(C(F)(F)F)cc3)ccc2c1
 : 5 | 2
> N#Cc1cccc(CN2C(=O)C3(SCCN3C(=O)c3cccs3)c3cc(Cl)ccc32)c1 (centres undefined)
 : 13 | 12
> N#CC1C(=N)Oc2n[nH]c(-c3ccncc3)c2C1c1cc2c(cc1Br)OCO2 (centres undefined)
 : 3 | 1
> COc1cccc(Cn2c(=O)c(C(=O)N3CCN(C(C)=O)CC3)nn(-c3ccc(Cl)cc3)c2=O)c1
 : 4 | 3
> Cc1cn2c3c(=O)n(CCN4CCCCC4)c(=O)n(C)c3nc2n1-c1ccccc1Cl
 : -2 | 27
> O=C(CNC(=O)c1ccccc1Br)N=Nc1c(O)n(Cc2ccc3c(c2)OCO3)c2ccccc12
 : -1 | -5
> COc1cccc(CSc2nnc(C(C)NC(=O)Nc3ccc(F)c(F)c3)n2-c2ccc(C)cc2)c1 (centres undefined)
 : 1 | 4
> O=C(Cc1ccccc1)N1CCOC(COCc2cccc(C(F)(F)F)c2)C1 (centres undefined)
 : 8 | -1
> Cc1ccc(S(=O)(=O)N2CC(C(N)=O)CCC2C)cc1C(F)(F)F (centres undefined)
 : -7 | -9
> CCNC(=O)N1CCN(CCN2C(=O)CSC2c2ccc(C(F)(F)F)cc2)CC1 (centres undefined)
 : 0 | 10
> O=C1NC(=Nc2ccccc2Cl)S/C1=C/c1ccc(Cl)cc1
 : -5 | -7
> CC(C)CNC(=O)C(NC(=O)c1ccccc1Cl)C1CCN(C(=O)c2ccc(F)cc2)CC1 (centres undefined)
 : 4 | 7
> CC(Cc1cccnc1)Nc1nccc(-c2cnn(-c3ccccc3F)c2)n1 (centres undefined)
 : 4 | 3

New compounds follow
Values run as follows: NPYLR7 agonist | NPYLR7 agonist max-min
> Cc1nc(CN(C)C(=O)CC2(c3ccccc3C)CC(=O)N(Cc3cccnc3)C2=O)cs1 (centres undefined)
 : 5 | 1
> CCCc1nc(NCc2csc(-c3ncccn3)n2)c2cnn(C)c2n1
 : 3 | 3
> N#Cc1ncn(CCS(=O)(=O)c2ccc(Cl)cc2)n1
 : 4 | 1
> CN1C(=O)C2(c3ccccc31)C(C(=O)Nc1c(F)c(F)c(F)c(F)c1F)CC1CCCN12 (centres undefined)
 : 0 | -2
> NC(=O)NC(=O)CCN1CCc2ccc(Br)cc21
 : -8 | -8
> N=c1sc(-c2ccccc2)nn1CCCS(=O)(=O)O
 : 5 | 2
> COc1cncc(-c2cccc3ccnn23)c1
 : 10 | 3
> CN1CCC(CNC(=O)N2CCCC(C(=O)NC3CC3)C2)c2ccccc21 (centres undefined)
 : -5 | -7
> O=C(NC1CC1)c1cc(Br)c[nH]1
 : -3 | -4
> COc1ccc(C2=NC(=Cc3ccc4c(c3)OCO4)C(=O)O2)cc1OC
 : 0 | -1
> COCCn1cc(NC(=O)Nc2ccccc2)c2ccccc21
 : 11 | 6
> Cc1c(C#N)c(NC(=O)CSc2nnc(C3CC3)n2C)n(C2CCCCC2)c1C
 : -3 | -1
> COCC(NC(=O)CC12CC3CC(CC(C3)C1)C2)c1ccnn1C (centres undefined)
 : -2 | -6
> CC(=O)Nc1cc(C)nn1-c1nc(C)cc(=O)[nH]1
 : 7 | 3
> Cc1ccc2oc(-c3ccc(O)c(CN4CCOCC4)c3)nc2c1
 : -5 | -10
> Cn1cnnc1SCc1cc(=O)c(OCc2ccc(F)cc2)co1
 : 13 | 8
> CCc1nc2ccc(C(=O)N3CCCC(C(N)=O)C3)cn2c1N(C)C(=O)c1ccncc1 (centres undefined)
 : 4 | 18
> CC(=O)NC(C)C(=O)Nc1ccc(NS(C)(=O)=O)c(C)c1 (centres undefined)
 : 10 | 6
> CCc1cc(C(=O)NNC(=S)NCC(C)C)cs1
 : 1 | 8
> Cc1cccc(COC(=O)c2nnn(-c3ccc(F)cc3)c2C)c1
 : 6 | -5
> CCCCC(=O)N(C)c1c(C)nc2ccc(C(=O)N(C)Cc3ccco3)cn12
 : 8 | -3
> c1ccc(C2CN(Cc3ccc(C4CCCO4)s3)C2)nc1 (centres undefined)
 : 18 | 6
> O=C1NC(c2cnn(Cc3ccccc3Cl)c2)Nc2ccccc21 (centres undefined)
 : -7 | -2
> COc1ccc(CC(=O)Nc2c(C)nc3scc(C)n3c2=O)cc1
 : 12 | 5
> Cc1ccc(C(C)(C)NC(=O)[C@H](Cc2ccccc2)N(C)C)cc1
 : -7 | -10
> O=c1oc2ccccc2n1CCN1c2cccc3cccc(c23)S1(=O)=O
 : 3 | 2
> CN(C)CCn1c(=O)n(C)c(=O)c2[nH]cnc21
 : 1 | -1
> COCCc1noc(CN(c2cc(C)ccc2C)C(C)C)n1
 : 1 | 1
> CCOC(=O)C1(Cc2cccc(OC)c2)CCCN(Cc2cnc(C)s2)C1 (centres undefined)
 : -8 | -14
> Cc1cc(C(=O)NCCCc2cccnc2)c2cccc(C)c2n1
 : 2 | -7

Retrieved one by one from above:
Values run as follows: NPYLR7 agonist | NPYLR7 agonist max-min
> CC(=O)Nc1cc(C)nn1-c1nc(C)cc(=O)[nH]1
 : 7 | 3
> CCNC(=O)N1CCN(CCN2C(=O)CSC2c2ccc(C(F)(F)F)cc2)CC1 (centres undefined)
 : 0 | 10
> Cn1cnnc1SCc1cc(=O)c(OCc2ccc(F)cc2)co1
 : 13 | 8
> CN(C)CCn1c(=O)n(C)c(=O)c2[nH]cnc21
 : 1 | -1
> CCc1cc(C(=O)NNC(=S)NCC(C)C)cs1
 : 1 | 8

(next part)
Values run as follows: NPYLR7 agonist | NPYLR7 agonist max-min
> O=C(CC(c1ccccc1)c1ccc2c(c1)OCO2)NCCc1cnccn1 (centres undefined)
 : 17 | 5
> C=C(NC(=O)C(=C)NC(=O)c1csc(C2=NC3c4csc(n4)C4NC(=O)c5csc(n5)C(C(C)(O)C(C)O)NC(=O)C5CSC(=N5)C(=CC)NC(=O)C(C(C)O)NC(=O)c5csc(n5)C3(CC2)NC(=O)C(C)NC(=O)C(=C)NC(=O)C(C)NC(=O)C(C(C)CC)NC2C=Cc3c(C(C)O)cc(nc3C2O)C(=O)OC4C)n1)C(N)=O (centres undefined)
 : -5 | -7
> Cc1ccc(CC(=O)NCc2nc(C)cs2)cc1
 : 3 | 4
> Cc1oc2nc(CN3CCC(NC(=O)NC4CCCCC4)CC3)nc(N)c2c1C
 : 11 | 9
> COc1cccc(N2C(=O)CSC2c2cccc(NC(=O)/C=C/c3ccccc3)c2)c1 (centres undefined)
 : 13 | 28
> COCCCNC(=O)C(C1CCCC1)N1CCN(C(=O)c2ccc([N+](=O)[O-])cc2)CC1 (centres undefined)
 : -8 | 0
> CCCCOc1ccccc1C1C(C(=O)OC2CCCCC2)=C(C)NC2=C1C(=O)CCC2 (centres undefined)
 : 0 | -5
> O=C(Oc1ccc(S(=O)(=O)O)cc1C(=O)O)c1ccc(=O)oc1
 : 2 | 3
> Clc1cccc(Nc2nc3nonc3n3nnnc23)c1
 : 9 | 5
> COc1cc(N2[C@@H]3CC[C@H]2CC(O)C3)ncn1 (some centres undefined)
 : 40 | 35
> Cc1ccnc(SCc2cc(=O)c(OC(=O)c3ccc(Br)o3)co2)n1
 : -24 | -9
> O=C1c2cccc3cccc(c23)C(=O)N1CCCN(C(=O)Cc1ccccc1)c1ccccc1
 : -2 | -3
> O=C(CCc1ccccc1)NCCS(=O)(=O)N1CCN(c2ccccc2)CC1
 : 0 | -1
> COCCNC(=O)c1cnn2c(C(F)(F)F)cc(-c3ccco3)nc12
 : 2 | 0
> C=CCn1cnc(-c2ccccc2)c1-c1ccc2onc(C)c2c1
 : -1 | -12
> COc1cc(C=C(C#N)C#N)cc(OC)c1OC(C)=O
 : -1 | 3
> Fc1cccc(C2=NC3(CCCCC3)NC2=S)c1
 : 8 | 0
> O=C(COC(=O)c1cc2c(s1)CCCC2)c1ccc(Cl)s1
 : -3 | -5
> CCOC(=O)c1[nH]c(C)c(C(=O)CN(C2CC2)S(=O)(=O)c2ccc(C(C)(C)C)cc2)c1C
 : -13 | -3
> CC(=O)Nc1nn(C)c2c1C(c1ccco1)CC(=O)N2 (centres undefined)
 : -15 | -17
> CCOC(=O)C1(Cc2cccc(OC)c2)CCCN(C(=O)COc2ccccc2)C1 (centres undefined)
 : 15 | 5
> Cn1c(=O)n(C)c2cc(CNC(=O)c3n[nH]c4c3CCC4)ccc21
 : 31 | 18
> COc1ccc(OC)c(-c2nc(N)sc2N=Nc2cccnc2)c1
 : -7 | -9
> COCc1cc(=O)n2c(nc3ccccc32)[nH]1
 : -11 | -17
> O=C(C1CCN(c2nc(Cc3ccc(F)cc3)ns2)CC1)N1CCN(c2cccc(Cl)c2)CC1
 : -8 | -1
> Cc1cccc(-n2ccnc2CN2CCCC(CO)(Cc3cccc(Cl)c3)C2)c1 (centres undefined)
 : 7 | 2
> CC(=O)c1c(C)oc2ccc(N(C(=O)c3ccncc3)S(=O)(=O)c3ccc4ccccc4c3)cc12
 : 15 | 14
> Oc1[nH]c2ccc(Br)cc2c1N=Nc1ccc(Cl)c(Cl)c1
 : 6 | 15
> COc1ccc(CCNC(=O)c2ccccc2N2CCC(NC(=O)C3CCCC3)CC2)cc1
 : 17 | 12
> N[C@@H](Cc1cc(I)c(Oc2cc(I)c(O)c(I)c2)c(I)c1)C(=O)O
 : -7&-4&-7 | -12&-10&-9
> CNC(=O)c1cccc(NC2CCCC(C(=O)NC(C)C)C2)n1 (centres undefined)
 : 1 | 2
> COc1ccc(-c2cc(N)n(-c3ccc(C(=O)NCCCO)cc3)n2)cc1
 : 7 | 9

Screens: PubChem, Fisher Drug Discovery Resource Center

A portion of the library; count on the stated rates, not on these rows.
